HIV Env fusion – inhibitors of HIV-1 Env-driven cell-cell fusion, primary screen, HeLa-JRFL effector, CEM21 target cells, luciferase; 1.1% of 360,000 active; inhibition, % at 12.3 µM;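 active = mean replicate inhibition score of at least 50 and every replicate individually at or above 50; inconclusive = only one of the two criteria met; inactive = mean below 50 and not all replicates reaching 50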;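 note: 0% = plate neutral controls and 100% = maraviroc near 300 nM; one replicate is shown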
Yeast UUG start – modulators of yeast start codon fidelity, primary screen, whole organism, S. cerevisiae, single point, plate reader; S. cerevisiae UUG-firefly luciferase reporter, luminescence/redox ratio; activity score, % at 18.7 µM; 0.13% of 350,000 active; AID 602363, 2012;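 active = replicate mean at a twofold rise or more, about +100% in these data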;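 note: firefly luciferase made from a UUG start codon reports start codon fidelity; reporter light over untreated wells divided by growth signal over untreated wells; some hits fall short of that in this replicate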
* marks the source's active call; other numbers are inactive results; ? = inconclusive; [ ] = dose if it differs, or a comment. The list is partial; the hit share may differ from the screen's.

SMILES | HIV Env fusion | Yeast UUG start
C[C@H]1CN([C@@H](C)CO)C(=O)c2cc(-c3ccncc3)cnc2O[C@H]1CN(C)S(=O)(=O)c1ccccc1 | -8[16.7 µM] | -8
C[C@@H]1CN([C@H](C)CO)S(=O)(=O)c2ccc(C#CC3(O)CCCC3)cc2O[C@H]1CN(C)C(=O)Nc1ccc(F)cc1 | -87[16.7 µM] | -1
COc1ccc(S(=O)(=O)Nc2ccc3c(c2)CC(=O)N([C@H](C)CO)C[C@@H](C)[C@@H](CN(C)C(=O)Nc2ccc4c(c2)OCO4)O3)cc1 | 11[16.7 µM] | 16
C[C@@H]1CN([C@H](C)CO)C(=O)c2cc(C3=CCCC3)cnc2O[C@H]1CN(C)C(=O)CN(C)C | -16[16.7 µM] | 5
Cc1ccccc1-c1ccc2c(c1)O[C@H](CN(C)C(=O)Nc1ccc(C(F)(F)F)cc1)[C@H](C)CN([C@H](C)CO)S2(=O)=O | 72*[16.7 µM] | 5
C[C@H]1CN([C@@H](C)CO)C(=O)Cc2cc(NC(=O)C3CCCCC3)ccc2O[C@@H]1CN(C)C(=O)Nc1cccc2ccccc12 | 32[16.7 µM] | 4
C[C@@H]1CCCCO[C@@H](CN(C)CC2CCCCC2)[C@H](C)CN([C@H](C)CO)C(=O)c2cc(NC(=O)Nc3ccc(F)cc3)ccc2O1 | 75*[16.7 µM] | 14
CN1C(=O)c2cc(NC(=O)c3cccs3)ccc2OC[C@H]2O[C@@H](CC(=O)NCC(F)(F)F)CC[C@@H]21 | -11[16.7 µM] | -9
O=C(C[C@H]1CC[C@H]2[C@@H](COC[C@@H](O)CN2S(=O)(=O)c2ccccc2F)O1)N1CCC(Cc2ccccc2)CC1 | 15[16.7 µM] | 2
COc1ccc(-c2ccc3c(c2)O[C@H](CN(C)Cc2ccccc2C(=O)O)[C@@H](C)CN([C@H](C)CO)S3(=O)=O)cc1 | -1[16.7 µM] | -12
O=C(Cc1ccccn1)N[C@H]1CC[C@@H](CCNS(=O)(=O)c2cccc(F)c2)O[C@@H]1CO | -19[16.7 µM] | 243*
Cc1ccc(-c2ccc3c(c2)O[C@@H](CN(C)Cc2ccccn2)[C@@H](C)CN([C@@H](C)CO)S3(=O)=O)cc1 | 14[16.7 µM] | -22
C[C@H]1CN([C@@H](C)CO)C(=O)Cc2cc(NC(=O)CCCCCC(=O)Nc3ccccc3N)ccc2O[C@H]1CN(C)Cc1ccc(Cl)c(Cl)c1 | -1[16.7 µM] | 4
COc1ccc(S(=O)(=O)N(C)C[C@H]2Oc3ccc(NC(=O)C4CCCCC4)cc3C(=O)N([C@@H](C)CO)C[C@@H]2C)cc1 | -11[16.7 µM] | 24
Cc1ccc(-c2ccc3c(c2)O[C@@H](CN(C)Cc2cncnc2)[C@H](C)CN([C@H](C)CO)S3(=O)=O)cc1 | 20[16.7 µM] | 6
Cc1ccc(S(=O)(=O)Nc2ccc3c(c2)C(=O)N([C@@H](C)CO)C[C@H](C)[C@H](CN(C)S(=O)(=O)c2ccc(C)cc2)OCCCC[C@@H](C)O3)cc1 | -38[16.7 µM] | -9
C[C@@H]1CN([C@H](C)CO)C(=O)c2cc(NC(=O)CCCCCC(=O)Nc3ccccc3N)ccc2O[C@@H]1CN(C)Cc1ccncc1 | -12[16.7 µM] | -4
COC(=O)C[C@@H]1CC[C@@H]2[C@@H](COc3ccc(NC(=O)Nc4cccc(Cl)c4)cc3C(=O)N2C)O1 | 40[16.7 µM] | 9
CCCN(C)C[C@@H]1Oc2ncc(C#Cc3ccc(OC)c(OC)c3)cc2C(=O)N([C@H](C)CO)C[C@@H]1C | 13[16.7 µM] | 1
CN1C(=O)c2cc(NC(=O)c3ccccc3)ccc2OC[C@H]2O[C@H](CC(=O)NCC3CC3)CC[C@@H]21 | 8[16.7 µM] | 11
C[C@H]1CN([C@@H](C)CO)C(=O)c2cc(N(C)C)ccc2O[C@@H]1CN(C)Cc1ccncc1 | -2[16.7 µM] | -4
O=C(C[C@H]1CC[C@H](NC(=O)Nc2ccc(F)cc2)[C@H](CO)O1)NCc1cccc(F)c1 | 15[16.7 µM] | -2
CC(C)NC(=O)N(C)C[C@@H]1Oc2cc(-c3ccccc3F)ccc2S(=O)(=O)N([C@H](C)CO)C[C@@H]1C | -1[16.7 µM] | 8
C[C@@H]1CN([C@H](C)CO)C(=O)Cc2cc(NC(=O)Nc3ccc(C(F)(F)F)cc3)ccc2O[C@H]1CN(C)CC1CCCCC1 | -11[16.7 µM] | 7
CCNC(=O)C[C@@H]1CC[C@H]2[C@@H](COc3ccc(NC(=O)c4cscn4)cc3C(=O)N2C)O1 | -25[16.7 µM] | -13
CN1C(=O)c2cc(NS(C)(=O)=O)ccc2OC[C@@H]2O[C@H](CC(=O)NCc3ccccc3)CC[C@@H]21 | 1[16.7 µM] | 10
COc1cccc(-c2cnc3c(c2)C(=O)N([C@@H](C)CO)C[C@@H](C)[C@@H](CN(C)CC2CCOCC2)O3)c1 | 0[16.7 µM] | 0
C[C@H](O)C#Cc1ccc2c(c1)O[C@@H](CN(C)C(=O)c1ccncc1)[C@H](C)CN([C@H](C)CO)S2(=O)=O | ? | 6
C[C@H](CO)N1C[C@H](C)[C@H](CN(C)C(=O)c2ccccc2F)Oc2cc(-c3ccc(F)cc3)ccc2S1(=O)=O | 30[16.7 µM] | 6
COc1cccc(C#Cc2cnc3c(c2)C(=O)N([C@@H](C)CO)C[C@H](C)[C@H](CN(C)CC2CC2)O3)c1 | 43[16.7 µM] | 0
COc1ccc(C#Cc2ccc3c(c2)O[C@H](CN(C)C(=O)NC2CCCCC2)[C@H](C)CN([C@@H](C)CO)S3(=O)=O)cc1 | -36[16.7 µM] | -10
C[C@@H]1CN([C@H](C)CO)C(=O)Cc2cc(NC(=O)Cc3cn(C)c4ccccc34)ccc2O[C@H]1CN(C)C(=O)Nc1ccc2c(c1)OCO2 | -13[16.7 µM] | 18
O=C(Nc1ccc(F)cc1)N[C@@H]1CC[C@H](CCn2cc(-c3ccc(F)cc3)nn2)O[C@@H]1CO | 11[16.7 µM] | -23
COc1ccc(CN(C)C[C@@H]2Oc3ccc(NS(=O)(=O)c4ccccc4)cc3CC(=O)N([C@H](C)CO)C[C@H]2C)cc1 | 15[16.7 µM] | 9
Cc1noc(C)c1S(=O)(=O)Nc1ccc2c(c1)CC(=O)N([C@H](C)CO)C[C@@H](C)[C@H](CN(C)Cc1ccc(C(=O)O)cc1)O2 | 3[16.7 µM] | -18
COc1ccc(NC(=O)Nc2ccc3c(c2)C(=O)N([C@@H](C)CO)C[C@@H](C)[C@@H](CN(C)Cc2ccccc2)O3)cc1 | -13[16.7 µM] | -1
Cc1ccc(S(=O)(=O)N(C)C[C@H]2Oc3ccc(NS(=O)(=O)c4ccc(Cl)cc4)cc3CC(=O)N([C@@H](C)CO)C[C@H]2C)cc1 | -2[16.7 µM] | 7
C/C=C/c1ccc2c(c1)O[C@@H](CN(C)C(=O)CN1CCOCC1)[C@@H](C)CN([C@H](C)CO)S2(=O)=O | 18[16.7 µM] | 9
Cn1ncc2c(=S)nc(Cl)[nH]c21 | 13 | -20
C[C@@H]1CCCCO[C@H](CN(C)Cc2ccc(Cl)c(Cl)c2)[C@@H](C)CN([C@@H](C)CO)C(=O)c2cc(NC(=O)CCC(F)(F)F)ccc2O1 | -78[16.7 µM] | 14
CCC(=O)Nc1ccc2c(c1)C(=O)N(C)[C@H]1CC[C@H](CC(=O)Nc3ccc(C(C)C)cc3)O[C@@H]1CO2 | -5[16.7 µM] | -13
O=C(C[C@@H]1CC[C@@H](NS(=O)(=O)c2ccc(F)cc2)[C@H](CO)O1)N1CCN(c2ccccc2)CC1 | -21[16.7 µM] | 6
Cc1noc(C)c1NC(=O)Nc1ccc2c(c1)CC(=O)N([C@@H](C)CO)C[C@H](C)[C@@H](CN(C)C(=O)Nc1ccccc1)O2 | -11[16.7 µM] | 9
C[C@H]1CN([C@@H](C)CO)C(=O)Cc2cc(NC(=O)Nc3ccccc3)ccc2O[C@@H]1CN(C)C(=O)Nc1cccc2ccccc12 | -1[16.7 µM] | -1
COCC#Cc1cnc2c(c1)C(=O)N([C@H](C)CO)C[C@H](C)[C@@H](CN(C)C(=O)C1CCC1)O2 | 7[16.7 µM] | 5
COc1ccc(NC(=O)Nc2ccc3c(c2)C(=O)N([C@@H](C)CO)C[C@@H](C)[C@@H](CN(C)Cc2ccc(C(=O)O)cc2)O3)cc1 | -6[16.7 µM] | 5
C[C@@H]1CCCCO[C@H](CN(C)Cc2ccc(C(=O)O)cc2)[C@@H](C)CN([C@@H](C)CO)C(=O)c2cc(NC(=O)CCC(F)(F)F)ccc2O1 | -23[16.7 µM] | 1
Cc1noc(C)c1S(=O)(=O)N(C)C[C@H]1OCCCC[C@@H](C)Oc2ccc(NC(=O)C3CCCCC3)cc2C(=O)N([C@H](C)CO)C[C@@H]1C | 1[16.7 µM] | 5
C[C@@H]1CN([C@H](C)CO)C(=O)c2cc(C#Cc3ccccn3)cnc2O[C@H]1CN(C)C(=O)c1cnccn1 | 16[16.7 µM] | 11
O=C(C[C@@H]1C=C[C@H](NC(=O)CCN2CCCCC2)[C@@H](CO)O1)NCc1ccc(Cl)c(Cl)c1 | -2[16.7 µM] | -3
COC(=O)C(CC#Cc1ccc2c(c1)[C@]1(C(=O)N2)[C@H](C(=O)N2CCCCCCC2)[C@H]2C(=O)O[C@H](c3ccccc3)[C@H](c3ccccc3)N2[C@@H]1c1ccc(OCCO)cc1)C(=O)OC | -33[16.7 µM] | -7
Cc1ccc(S(=O)(=O)N(C)C[C@@H]2Oc3cc(C#Cc4ccccc4)ccc3S(=O)(=O)N([C@H](C)CO)C[C@H]2C)cc1 | 35[16.7 µM] | -17
CC(C)CC#Cc1ccc2c(c1)O[C@@H](CN(C)S(=O)(=O)c1ccc(F)cc1)[C@H](C)CN([C@@H](C)CO)S2(=O)=O | 60*[16.7 µM] | -1
C[C@H](CO)N1C[C@H](C)[C@H](CN(C)C(=O)NC2CCCCC2)OCCCC[C@H](C)Oc2ccc(NC(=O)c3ccncc3)cc2C1=O | -26[16.7 µM] | 10
C[C@@H]1CN([C@H](C)CO)C(=O)c2cccc(NC(=O)NC3CCCCC3)c2O[C@@H]1CN(C)Cc1ccccc1 | -6[16.7 µM] | 5
CN1C(=O)c2cc(NC(=O)c3ccc(C(F)(F)F)cc3)ccc2OC[C@@H]2O[C@H](CC(=O)O)CC[C@H]21 | 16[16.7 µM] | 9
COc1ccc(NC(=O)Nc2ccc3c(c2)C(=O)N([C@H](C)CO)C[C@H](C)[C@H](CN(C)C(=O)NC(C)C)OCCCC[C@H](C)O3)cc1 | 28[16.7 µM] | 9
CO[C@H]1CN(C)C(=O)c2cc(NC(=O)Cc3ccccc3)ccc2OC[C@H](C)N(C)C[C@@H]1C | -15[16.7 µM] | 5
C[C@@H]1CCCCO[C@@H](CN(C)C(=O)CCC(F)(F)F)[C@H](C)CN([C@H](C)CO)C(=O)c2cc(NC(=O)C3CCCCC3)ccc2O1 | 0[16.7 µM] | 25
C[C@H]1CN([C@@H](C)CO)C(=O)Cc2cc(NC(=O)Nc3cccc4ccccc34)ccc2O[C@@H]1CN(C)C(=O)Nc1ccc2c(c1)OCO2 | -14[16.7 µM] | -9

Arranged by length of the SMILES (lowest first): some entries from above.
SMILES | HIV Env fusion | Yeast UUG start
CO[C@H]1CN(C)C(=O)c2cc(NC(=O)Cc3ccccc3)ccc2OC[C@H](C)N(C)C[C@@H]1C | -15[16.7 µM] | 5
O=C(C[C@@H]1C=C[C@H](NC(=O)CCN2CCCCC2)[C@@H](CO)O1)NCc1ccc(Cl)c(Cl)c1 | -2[16.7 µM] | -3
COCC#Cc1cnc2c(c1)C(=O)N([C@H](C)CO)C[C@H](C)[C@@H](CN(C)C(=O)C1CCC1)O2 | 7[16.7 µM] | 5
C[C@@H]1CN([C@H](C)CO)C(=O)c2cc(C#Cc3ccccn3)cnc2O[C@H]1CN(C)C(=O)c1cnccn1 | 16[16.7 µM] | 11
C[C@@H]1CN([C@H](C)CO)C(=O)c2cccc(NC(=O)NC3CCCCC3)c2O[C@@H]1CN(C)Cc1ccccc1 | -6[16.7 µM] | 5
Cc1ccc(S(=O)(=O)N(C)C[C@@H]2Oc3cc(C#Cc4ccccc4)ccc3S(=O)(=O)N([C@H](C)CO)C[C@H]2C)cc1 | 35[16.7 µM] | -17
C[C@H]1CN([C@@H](C)CO)C(=O)Cc2cc(NC(=O)Nc3ccccc3)ccc2O[C@@H]1CN(C)C(=O)Nc1cccc2ccccc12 | -1[16.7 µM] | -1
COc1ccc(NC(=O)Nc2ccc3c(c2)C(=O)N([C@@H](C)CO)C[C@@H](C)[C@@H](CN(C)Cc2ccc(C(=O)O)cc2)O3)cc1 | -6[16.7 µM] | 5
C[C@@H]1CCCCO[C@@H](CN(C)C(=O)CCC(F)(F)F)[C@H](C)CN([C@H](C)CO)C(=O)c2cc(NC(=O)C3CCCCC3)ccc2O1 | 0[16.7 µM] | 25

(further entries)
SMILES | HIV Env fusion | Yeast UUG start
CC(=O)N(C)C[C@@H]1Oc2cc(C#C[C@@H](C)O)ccc2S(=O)(=O)N([C@H](C)CO)C[C@H]1C | -18[16.7 µM] | -2
O=C(C[C@@H]1C=C[C@H](NC(=O)c2ccncc2)[C@H](CO)O1)NCCc1ccncc1 | -5[16.7 µM] | 10
COCC(=O)N(C)C[C@@H]1Oc2cc(-c3ccncc3)ccc2S(=O)(=O)N([C@@H](C)CO)C[C@@H]1C | -16[16.7 µM] | 2
COCC#Cc1cnc2c(c1)C(=O)N([C@H](C)CO)C[C@@H](C)[C@@H](CN(C)Cc1ccc(F)cc1)O2 | 7[16.7 µM] | -8
C[C@@H]1CCCCO[C@@H](CN(C)S(=O)(=O)c2ccc(Cl)cc2)[C@@H](C)CN([C@@H](C)CO)C(=O)c2cc(NS(=O)(=O)c3cccs3)ccc2O1 | -26[16.7 µM] | -13

Bioassay records from PubChem.
